gsp antagonist: qHTS for Antagonists of gsp, the Etiologic Mutation Responsible for Fibrous Dysplasia/McCune-Albright Syndrome: qHTS. gsp-mutant cells, cAMP HTRF, 30 min; control for the full effect not named in the record. Potency, µM (doses to about 76.9 µM), inactives show top-dose activity change, negative = inhibition, most hits filed as inhibitors. 340,000 tested, 0.4% active. AID 624288, 2012; active = falling curve of any shape with a large fitted effect; inconclusive = falling curve, mostly with a smaller effect; inactive = flat or rising curve; cell line not stated here;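 further: intracellular cAMP measured with PDE inhibitor Ro 20-1724 present during compound exposure; potency means the concentration at half of the fitted maximal effect; on the % scale 0 is the no-effect control and ±100 the full control effect; nearly all actives have a fitted effect of over 65% in size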
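Cells in G418 medium, seeded 16-24 h, 37C; buffer exchange to DPBS + 1 mM CaCl2, 0.5 mM MgCl2, 0.05% BSA; cpds in DMSO + […] (300 uM stock), 30 min 37C; HTRF cAMP detection.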
gsp agonist: qHTS for Agonist of gsp, the Etiologic Mutation Responsible for Fibrous Dysplasia/McCune-Albright Syndrome: qHTS. gsp mutant cells, cAMP HTRF, 30 min; control for the full effect not named in the record. Potency, µM (series often up to 76.9 µM), inactives show top-dose activation (cAMP increase), hits mostly activators. 340,000 tested, 0.13% active. AID 624287, 2012; active = well fitted activation curve with a large enough effect; inconclusive = small, poorly fitted or top-dose-only effect, or another doubt; inactive = no such curve, though single readings can be large or run the other way; cell line not stated here;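 further: phosphodiesterase inhibitor Ro 20-1724 added with compounds to block cAMP breakdown; potency means the concentration at half of the fitted maximal effect; nearly all actives have a fitted effect of over 60% in size; about a fifth of the inactives were tested at one dose only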
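Cells stably selected in G418 were plated at 2000/well, grown 16-24 hr, then given compounds in DMSO with the PDE inhibitor […] (300 uM solution added) for 30 min at 37C; cAMP was read by HTRF.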
D2 potentiator: Beta-Arrestin HTS for Positive Allosteric Modulators of the Human D2 Dopamine Receptor: Potentiators; DiscoveRx D2 beta-arrestin cells, luminescence, 90 min; 100% = 57 uM dopamine signal; potentiation, % (concentration not given with the values); 360,000 tested, 0.23% active; AID 624464, 2012; active = potentiation of 50% or more; inconclusive = 30% to 50%; inactive = 30% or less;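 further: compound concentration not given in the record; tested on top of an EC20 dose of dopamine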
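D2 cells co-treated with compound plus 50 nM dopamine (EC20) for 90 min at 37 deg C to detect potentiation. Beta-arrestin recruitment was read as enzyme-fragment luminescence after 1 h at ambient temperature. Full response was set by 57 uM dopamine.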
Six1-Eya2 inh: qHTS Assay for Inhibitors of the Six1/Eya2 Interaction; Homeobox protein SIX1 (Homo sapiens) + Protein phosphatase EYA2 (Homo sapiens), …; AlphaScreen GST-Six1/His-Eya2 binding, biochemical; stronger effect = lower value; control for the full effect not named in the record; activity change, % (test concentration not listed); 360,000 tested, 0.56% active; AID 651725, 2012; in the data active = activity change below about -65%; inconclusive = about -30% to -65%; inactive = above about -30%; further: on the % scale 0 is the no-effect control and ±100 the full control effect; compound concentration not given in the record
Target sequence (O00167 whole entry, looked up): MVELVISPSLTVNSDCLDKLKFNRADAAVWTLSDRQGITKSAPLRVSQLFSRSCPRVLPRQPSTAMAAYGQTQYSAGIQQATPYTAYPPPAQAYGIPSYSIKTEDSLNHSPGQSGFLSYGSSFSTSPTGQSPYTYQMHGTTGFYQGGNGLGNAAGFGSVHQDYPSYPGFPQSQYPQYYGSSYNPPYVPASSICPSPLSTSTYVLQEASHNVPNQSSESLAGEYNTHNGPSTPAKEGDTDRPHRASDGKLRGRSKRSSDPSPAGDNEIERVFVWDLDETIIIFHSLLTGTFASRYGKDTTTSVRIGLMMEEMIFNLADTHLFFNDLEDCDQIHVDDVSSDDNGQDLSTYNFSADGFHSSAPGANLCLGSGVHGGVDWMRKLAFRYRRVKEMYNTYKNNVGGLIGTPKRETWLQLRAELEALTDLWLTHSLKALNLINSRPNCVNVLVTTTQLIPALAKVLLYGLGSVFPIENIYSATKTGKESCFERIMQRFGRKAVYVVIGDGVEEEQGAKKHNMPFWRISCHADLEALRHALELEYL
Target sequence (Q15475 whole entry, looked up): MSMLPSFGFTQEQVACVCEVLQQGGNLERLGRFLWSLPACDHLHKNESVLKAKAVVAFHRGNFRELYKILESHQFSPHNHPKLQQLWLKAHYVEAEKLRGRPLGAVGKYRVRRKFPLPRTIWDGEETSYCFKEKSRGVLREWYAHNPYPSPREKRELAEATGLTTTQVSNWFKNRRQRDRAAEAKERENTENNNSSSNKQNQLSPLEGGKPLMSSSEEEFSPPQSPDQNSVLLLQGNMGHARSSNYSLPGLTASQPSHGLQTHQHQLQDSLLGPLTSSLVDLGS
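AlphaScreen with GST-Six1 and His-Eya2 (5X mix: 250 nM and 500 nM), glutathione donor and nickel acceptor beads; buffer 50 mM Tris pH 8.0, 300 mM NaCl, 1 mM TCEP; 1 h at 37 C in the dark.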
CtBP-E1A blk: qHTS Assay for Inhibitors of the CtBP/E1A Interaction | activity change, % (no concentration beside the values) | CtBP / adenovirus E1A interaction (AlphaScreen) | AID 651724, 2012 | 340,000 tested, 0.49% active | AlphaScreen GST-E1A/His-CtBP binding, 1536-well; stronger effect = lower value; control for the full effect not named in the record; in the data active means activity change below about -65%; inconclusive means about -30% to -65%; inactive means above about -30%; further: on the % scale 0 is the no-effect control and ±100 the full control effect; compound concentration not given in the record
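GST-E1A and His-tagged CtBP (125 nM each as 5X stock) were preincubated with pin-transferred compound for 2 h at 37 °C in the dark, then glutathione donor and nickel acceptor beads were added for 1 h before AlphaScreen reading.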
D2 agonist: Beta-Arrestin HTS for Positive Allosteric Modulators of the Human D2 Dopamine Receptor: Agonists; D(2) dopamine receptor (Homo sapiens), P14416; DiscoveRx PathHunter D2 beta-arrestin, luminescence, 90 min; 100% = 57 uM dopamine signal; activation, % (concentration not given with the values); 360,000 tested, 0.084% active; AID 624465, 2012; in the data active = activation above about 40%; inconclusive = about 15% to 40%; inactive = below about 15%; further: compound concentration not given in the record; the text of the record calls up to 30% inactive
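DiscoveRx PathHunter D2 beta-arrestin cells (2,100/well) attached overnight, then compound-stimulated 90 min at 37 C in HBSS/10 mM HEPES/0.1% Tween-20 buffer; beta-galactosidase complementation read by luminescence after 1 h at ambient temperature. Dopamine 57 uM final (EC100) as control.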
* = called active by the depositor; u = inconclusive; x = no result given; [ ] = remark or other dose.

No.	canonical_smiles	gsp antagonist	gsp agonist	D2 potentiator	Six1-Eya2 inh	CtBP-E1A blk	D2 agonist
1	CN(CCCNC(=O)CCC(=O)N1CCOc2ccccc21)Cc1ccccc1	4%	6%	-14	0	10	-1.9
2	Cc1ccc(NC(=O)COC(=O)C2=COCCO2)c([N+](=O)[O-])c1	u	-10%[15.4 µM]	-8	5	-16	-1.8
3	O=C(Cc1ccc(S(=O)(=O)N2CCOCC2)s1)OCc1ccc(Cl)cc1	-3%	28%	-1	0	9	8.9
4	Cc1cccc(NC(=O)c2ccc([N+](=O)[O-])s2)n1	-2%	-5%	4	-6	x	u
5	CC(CN1C(C)CCCC1C)OC(=O)c1ccccc1Cl (configuration not stated)	12%	-67%[inhibitor]	-16	5	-3	-5.2
6	COc1ccc(CCN2C(=S)N(c3ccccc3)C(=O)C2CC(=O)O)cc1OC (configuration not stated)	7%	7%	-5	2	x	3.3
7	CCOc1ccc(-c2csc(NC(=O)CSCC(=O)O)n2)c2ccccc12	-2%	7%[15.4 µM]	13	-3	0	0.5
8	COc1cccc(-c2nnc(-c3ccc(C)o3)o2)c1	-5%	-43%[inhibitor]	6	-5	3	-2.5
9	C=C1C(=O)[C@]23C[C@H]1CC[C@H]2[C@]1(C)[C@@H](OC(C)=O)CC[C@@](C)(C(=O)OC)[C@H]1C[C@@H]3OC(C)=O	x	x	-16	7	-13	-8.4
10	CCOc1ccc(NC(=S)NN2CCN(C)CC2)cc1	17%	-34%[inhibitor]	-7	-4	-2	-0.2
11	O=C(Nc1ccsc1C(=O)NC1CCCCC1)c1ccc(F)cc1	35%[activator]	12%	0	2	5	0.1
12	CCC1(c2ccccc2)NC(=O)N(CC(=O)Nc2ccccc2C(=O)NC2CCCC2)C1=O (configuration not stated)	2%	-24%	-6	1	-13	-2.7
13	Cc1cccc2cc(CN(CCc3ccccc3)C(=O)N3CCOCC3)c3nnnn3c12	-5%	-2%	-16	1	-8	-0.5
14	COc1cccc(NC(=O)C2C3C=CC4(O3)C2C(=O)N(C2CC2)C4C(=O)NC2CCCCC2C)c1 (configuration not stated)	-4%	4%	-20	-3	7	-5.1
15	Cc1c(C(=O)Nc2cccc([N+](=O)[O-])c2)csc1-c1ccccc1	u	-88%[inhibitor]	-35	-13	-15	-3.1

Next part; it opens with the four that closed the last part.
No.	canonical_smiles	gsp antagonist	gsp agonist	D2 potentiator	Six1-Eya2 inh	CtBP-E1A blk	D2 agonist
12	CCC1(c2ccccc2)NC(=O)N(CC(=O)Nc2ccccc2C(=O)NC2CCCC2)C1=O (configuration not stated)	2%	-24%	-6	1	-13	-2.7
13	Cc1cccc2cc(CN(CCc3ccccc3)C(=O)N3CCOCC3)c3nnnn3c12	-5%	-2%	-16	1	-8	-0.5
14	COc1cccc(NC(=O)C2C3C=CC4(O3)C2C(=O)N(C2CC2)C4C(=O)NC2CCCCC2C)c1 (configuration not stated)	-4%	4%	-20	-3	7	-5.1
15	Cc1c(C(=O)Nc2cccc([N+](=O)[O-])c2)csc1-c1ccccc1	u	-88%[inhibitor]	-35	-13	-15	-3.1
16	Cc1ccc(NC(=O)C2CCN(C(=O)c3ccccc3C)CC2)nc1	1%	6%	-12	2	4	-1.3
17	OCC1OC(Oc2c[nH]c3ccccc23)C(O)C(O)C1O (configuration not stated)	3%	x	-16	-2	0	-7.7
18	CCCCCCOc1ccc(C(CC(=O)O)C(N)=O)cc1 (configuration not stated)	-1%	-42%[inhibitor]	-10	6	0	-4.1
19	Cc1cc(C)nc(-n2ncc3c2CC(c2ccccc2)CC3=O)n1 (configuration not stated)	-5%	7%[15.4 µM]	-3	12	-4	1.6
20	Cc1ccc(S(=O)(=O)NC2=NCN(CCN3CCOCC3)CN2)cc1	-2%	-30%	-7	5	4	-2.2
21	O=C(Cc1ccccc1)n1nc(-c2ccccc2)nc1NCc1ccco1	-15%	-12%	-6	2	0	-2.7
22	O=C(c1ccc([N+](=O)[O-])cc1)N1CCc2ccccc2C1	7%	-29%	-1	-5	4	-0.9
23	Cc1ccnc(NS(=O)(=O)c2cccs2)c1	-1%	7%	0	1	12	0.0
24	COc1ccc(C)cc1NC(=O)CNc1ccccc1CN(C)C1CCCCC1	-3%	20%	-21	-18	-15	1.3
25	COc1ccc(Br)cc1CN(C)C(=O)Cc1ccc(S(=O)(=O)N2CCOCC2)s1	-8%	-5%[15.4 µM]	-10	-6	0	-1.0
26	Cc1cc(N2CCCCC2)ccc1[N+](=O)[O-]	-1%	3%	-22	-1	-2	-1.0
27	COc1ccc2c(C)cc(=O)[nH]c2c1	13%	28%	-20	13	0	-4.1
28	O=C(c1ccccc1)n1ccc(-c2cnc(-c3ccccc3)s2)n1	-7%[15.4 µM]	8%	-1	7	-5	-0.2
29	O=c1cc(Nc2ccc3c(c2)OCCO3)[nH]c(=O)n1-c1ccc(Cl)cc1	0%	-73%[inhibitor]	-9	3	1	1.9
30	CCn1cc(CN2CCC(C(=O)Nc3ccc(Oc4cccnc4)cc3)CC2)cn1	6%	-26%	17	5	-5	-3.6

Four structures out of the list, arranged by heavy-atom count, low to high.
No.	canonical_smiles	gsp antagonist	gsp agonist	D2 potentiator	Six1-Eya2 inh	CtBP-E1A blk	D2 agonist
27	COc1ccc2c(C)cc(=O)[nH]c2c1	13%	28%	-20	13	0	-4.1
17	OCC1OC(Oc2c[nH]c3ccccc23)C(O)C(O)C1O (configuration not stated)	3%	x	-16	-2	0	-7.7
28	O=C(c1ccccc1)n1ccc(-c2cnc(-c3ccccc3)s2)n1	-7%[15.4 µM]	8%	-1	7	-5	-0.2
21	O=C(Cc1ccccc1)n1nc(-c2ccccc2)nc1NCc1ccco1	-15%	-12%	-6	2	0	-2.7

Continued:
No.	canonical_smiles	gsp antagonist	gsp agonist	D2 potentiator	Six1-Eya2 inh	CtBP-E1A blk	D2 agonist
31	Cc1cc(=O)[nH]c(SCC(=O)Nc2c(C)n(C)n(-c3ccccc3)c2=O)c1C#N	-6%	-32%[inhibitor]	2	11	-17	-2.1
32	O=C(Nc1ncc(S(=O)(=O)c2ccc([N+](=O)[O-])cc2)s1)c1cccc2ccccc12	0%	-3%	62*	-13	-2	-2.4
33	O=C(NCC(F)(F)F)Nc1ccccn1	3%	2%	1	4	6	0.7
34	Cc1ccc(-c2noc(CCC(=O)Nc3cc(C)ccn3)n2)cc1	3%	20%	-9	6	8	-1.5
35	O=C(c1cc(COc2c(F)cccc2F)on1)N1CC[C@@H]2CCCC[C@H]2C1	x	-25%	-14	6	5	-2.0
36	COc1ccc(Cc2nnc(SCC(=O)Nc3ccccc3)[nH]c2=O)cc1	-1%	0%[15.4 µM]	3	8	-3	-0.3
37	CCCn1c(N)c(C(=O)CSc2nnc(C3CC3)n2C2CC2)c(=O)[nH]c1=O	10%	2%[15.4 µM]	-10	-2	-1	-0.5
38	Cn1nc(C(=O)NNC(=O)c2ccccc2F)c2ccccc2c1=O	10%	12%	-13	-14	-3	-2.8
39	CSc1ncc(C(=O)O)n1-c1ccc(F)cc1	-18%	29%	-15	5	3	0.2
40	Clc1ccc(CNCC2CCCO2)c(Cl)c1 (configuration not stated)	7%	-16%	-12	2	9	-1.7
41	Cc1cccc(NC(=O)c2ccc(S(=O)(=O)N3CCCCC3C)cc2)n1 (configuration not stated)	u	-92%[inhibitor]	-14	-1	0	0.5
42	O=C(CCNS(=O)(=O)c1ccc(F)cc1)N1CCN(c2ncccn2)CC1	x	u	-12	-7	-3	-1.9
43	CN1C(=O)NC(c2ccccc2)C2=C1CN(c1ccc3ccccc3c1)C2=O (configuration not stated)	-7%[15.4 µM]	20%	9	-5	4	-3.5
44	Cc1[nH]c2ccccc2c1/C=N/n1cnnc1	8%	-25%	-7	-10	3	-2.0
45	O=C(Nc1cc2c(cc1[N+](=O)[O-])OCCO2)c1cccnc1	-1%	-1%[15.4 µM]	-3	-6	-3	1.4

Next entries.
No.	canonical_smiles	gsp antagonist	gsp agonist	D2 potentiator	Six1-Eya2 inh	CtBP-E1A blk	D2 agonist
46	O=C(CCN1CCN2CCCC2C1)N1c2ccccc2Sc2ccc(Cl)cc21 (configuration not stated)	10%	15%	-14	-2	0	5.2
47	Cc1cc(Br)c(NC(=O)CCl)c(Br)c1	-8%	8%	2	6	2	-0.2
48	Oc1c(C=Nc2ccccc2Cl)[nH]c2ccccc12	2%	u	-8	5	0	-9.7
49	C(#CC1CCCC1)c1ccc2c(c1)COc1c3ccccc3nn1-2	4%	2%	5	-2	3	0.1
50	CCC(/C=C1\Sc2ccc(OC)cc2N1CC)=C\c1sc2ccc(OC)cc2[n+]1CCCS(=O)(=O)[O-]	1%	u	-5	u	-23	-5.5
51	COc1ccc(N=C2NN=C(c3ccc4c(c3)OCCO4)CS2)cc1	3%	24%	5	-30	-18	-2.1
52	CCCSc1nc(N)c2c3c(sc2n1)CN(C)CC3	2%	-1%	-28	-21	-11	-1.5
53	CCC(C)(C)C(=O)Nc1ccc(C(N)=O)cc1	3%	-32%[inhibitor]	-4	15	1	-1.4
54	Cc1cc(Cl)cc(Cl)c1OCCCCN(C)C	17%	-9%	-34	5	0	-1.8
55	CC(=O)Nc1ccc(-c2csc(NCc3ccco3)n2)cc1	-2%	19%	-11	-1	-1	-3.2
56	Cc1ccc([C@@H]2CC(=O)[C@@H]3CN(S(=O)(=O)c4ccc(C)cc4)[C@H](c4ccccc4)C[C@@H]3N2S(=O)(=O)c2ccc(Cl)cc2)cc1	x	1%	-5	0	5	-9.2
57	CCOc1ccccc1CN(CCc1ccc2c(c1)OCO2)Cc1ccccn1	-8%	-17%	-9	0	-3	-1.2
58	Cc1cccc(Oc2ncnc(N)c2[N+](=O)[O-])c1	3%	2%	-8	5	-10	-1.3
59	O=S(=O)(c1ccc2nc(Cc3ccccc3)[nH]c2c1)N1CCOCC1	8%	u	2	-1	2	2.4
60	CCN(CC)S(=O)(=O)c1ccc(Cl)c(NC(=O)c2ccncc2)c1	20%	-5%[15.4 µM]	-5	3	2	1.5
61	O=C(CSc1cn[nH]n1)Nc1cccc(C(F)(F)F)c1	-7%	u	-6	1	3	-5.0
62	CC(C)OCCCNC(=O)c1ccc(CS(=O)(=O)Cc2ccccc2F)o1	1%	-26%	7	0	4	-2.9
63	COc1cc(C(=O)OC(C)C(=O)N2CCc3ccccc3C2)ccc1OCC(=O)N1CCOCC1 (configuration not stated)	-14%	-12%	-10	-1	0	-4.8
